Screening results from PubChem.
Mtb growth = M. tuberculosis H37Rv growth inhibitors, H37Rv strain (AID 1626) | one-dose inhibition, % at 10 µM; IC50 in µM for titrated hits | hit rate 0.95% among 220,000 | M. tuberculosis H37Rv growth inhibition; higher % means a stronger effect;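 active = confirmed in a dose series; inconclusive = inhibition above 80% but not taken into the dose series; inactive = below 80% or under 30% at every dose of the series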;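 also: bacteria incubated seven days before Alamar blue readout; 0% = bacteria only wells and 100% = bacteria with antibiotic wells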
Mtb bLac sens = beta-lactam sensitization of Mtb H37Rv; AID 434955; M. tuberculosis H37Rv growth with meropenem, percent inhibition; hits of this screen are not shown here; inhibition, % at 25 µM; hit rate 0.27% among 330,000;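 active = about 74% or more and at least 40 points above the plate without the antibiotic, then above 30% in a dose series; inconclusive = first-round hits that could not be retested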;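 also: growth measured after seven days incubation then overnight dye step; 0% = bacteria only wells and 100% = bacteria with antibiotic; twin plates without the antibiotic show which effects depend on it; some results filed as inactive read as strong as hits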
YopH PTP inh = blocks Yersinia enterocolitica YopH tyrosine phosphatase. fluorescence Ex485/Em525. inhibition, %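 (about 10 µM by stock and volumes)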. hit rate 0.16% among 140,000. AID 898;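 active = inhibition of 50% or more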;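 also: controls were vehicle for no effect and minimum signal wells for full effect; inactives centre near -20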
Arbovirus inh = blocks arbovirus infection. hit rate 0.37% among 200,000. arbovirus infection cell-based antiviral screen. inhibition, % at 10 µM;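 active = inhibition from about 30%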;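 also: bluetongue infection of BSR cells; cell survival read as ATP light after 72 h; 0% = infected wells without compound and 100% = uninfected wells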
RecA intein inh = Mtb RecA intein splicing inhibition; inhibition, %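 (about 9 µM by stock and volumes)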; P9WHJ3; hit rate 0.75% among 290,000; cell-free RecA intein splicing, fluorescence; in the data active = inhibition above about 30%; inconclusive = no clear call, values can overlap the other calls;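 also: 0% = vehicle wells and 100% = reference inhibitor control wells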
Target sequence (P9WHJ3 whole entry, looked up): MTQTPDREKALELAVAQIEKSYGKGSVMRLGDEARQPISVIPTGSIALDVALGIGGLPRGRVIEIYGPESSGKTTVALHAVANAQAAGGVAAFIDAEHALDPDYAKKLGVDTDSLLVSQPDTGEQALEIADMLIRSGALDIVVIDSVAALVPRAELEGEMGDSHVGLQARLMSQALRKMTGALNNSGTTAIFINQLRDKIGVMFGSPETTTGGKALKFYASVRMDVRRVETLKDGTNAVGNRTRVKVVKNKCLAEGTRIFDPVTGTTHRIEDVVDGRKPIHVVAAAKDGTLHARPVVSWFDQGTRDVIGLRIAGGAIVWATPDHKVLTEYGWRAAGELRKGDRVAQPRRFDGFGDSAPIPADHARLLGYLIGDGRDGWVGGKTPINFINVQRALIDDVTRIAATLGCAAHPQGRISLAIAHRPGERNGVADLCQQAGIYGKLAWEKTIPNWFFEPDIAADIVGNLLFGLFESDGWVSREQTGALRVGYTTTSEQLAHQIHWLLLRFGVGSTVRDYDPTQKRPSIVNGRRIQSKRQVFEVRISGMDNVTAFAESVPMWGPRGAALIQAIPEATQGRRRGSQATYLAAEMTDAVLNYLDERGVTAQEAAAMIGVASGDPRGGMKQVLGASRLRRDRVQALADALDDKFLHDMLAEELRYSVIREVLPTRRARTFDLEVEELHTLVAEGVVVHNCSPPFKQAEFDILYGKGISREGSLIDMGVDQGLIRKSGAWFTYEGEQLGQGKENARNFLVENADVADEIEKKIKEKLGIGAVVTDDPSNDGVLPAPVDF
Arbovirus inh repeat = further read-out of Arbovirus inh, marked with its call; inhibition, %; measured here: 10K subset replicate screen; many hits read low in the repeat;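 first of two repeat runs on a subset; 0% = infected and 100% = uninfected wells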
* = called active by the depositor; ? = inconclusive; . = no result given. The list is partial; rates above refer to the full screens.

SMILES	Mtb growth	Mtb bLac sens	YopH PTP inh	Arbovirus inh	RecA intein inh	others
CCCc1ccc(C(=O)[C@@H]2[C@@H](C(C)=O)N3c4ccc(F)cc4C=C[C@@H]3[C@@]23C(=O)Nc2ccccc23)cc1	8%	3	.	.	0.1
COc1ccc(OCC(=O)NCCC2=CCCCC2)c([N+](=O)[O-])c1	10%	13	.	-1	-0.7
COc1ccc(C(=O)N/N=C/c2c(C)[nH]c(=O)[nH]c2=O)cc1	0%	0	.	-7	-4.5
O=C(NCCNC(=O)c1ccco1)c1ccc(Cl)c(Cl)c1	.	-2	.	.	5.2
Cc1nn(CC(=O)c2ccc(Cl)s2)c(C)c1[N+](=O)[O-]	67%	-6	.	22	1.9
COc1ccc(Cl)cc1NC(=O)CC(C)=O	5%	89	-47	0	2.0
CCCCCC(=O)Nc1cc(S(=O)(=O)N2CCCCC2)ccc1N1CCOCC1	.	-10	.	.	0.4
COc1cc(C(=O)Nc2ccc(F)cc2Cl)ccc1OCC(=O)N1CCOCC1	.	-7	.	.	-0.7
CCOC(=O)COc1ccc(S(=O)(=O)N2CCN(c3ccc(OC)cc3)CC2)cc1	2%	67	.	6	-1.1
CCCOc1ccc(C2C(C(=O)c3ccco3)=C(O)C(=O)N2CCCn2ccnc2)cc1 (stereo unspecified)	.	-7	-56	-2	-1.6
COC(=O)Nc1ccc(S(=O)(=O)N(C)C)cc1	-10%	0	-19	4	0.4
COc1cc(C(=O)N2CCN(C)CC2)cc(OC)c1OC	.	-10	.	.	0.3
O=C(CSc1nnc(-c2ccc3c(c2)OCO3)o1)Nc1ncc(C(F)(F)F)cc1Cl	?	83	.	-17	-0.2
CCOc1ccc(NC(=O)CN(C)C(=O)C2CC(=O)N(CCc3ccccc3)C2)cc1OCC (stereo unspecified)	.	-3	.	.	-0.5
COc1ccc(C2C(C(=O)c3ccco3)=C(O)C(=O)N2CC2CCCO2)c(OC)c1 (stereo unspecified)	.	3	.	.	1.9
Cc1ccc(Oc2ccc(S(=O)(=O)N3CCOCC3)cc2C(N)=O)c(-n2nc3ccccc3n2)c1	3%	-6	-41	-20	2.4
CC1(C)CC(=O)C/C(=N/Nc2nc3ccccc3s2)C1	46%	-2	.	-3	9.5
COc1cc(OC)cc(C(=O)NC(C(=O)O)C23CC4CC(CC(C4)C2)C3)c1 (stereo unspecified)	-9%	-5	.	17	-6.1
O=C(CN1C(=O)NC(Cc2c[nH]c3ccccc23)C1=O)Nc1cccc(S(=O)(=O)N2CCCC2)c1 (stereo unspecified)	4%	-11	.	4	0.6
COc1ccc(-c2nn(-c3ccccc3)cc2C(=O)O)cc1OC	-3%	7	-20	0	1.1
O=C(c1nn(Cc2ccccc2)c(=O)c2ccccc12)N1CCN(C/C=C/c2ccccc2)CC1	12%	69	0	-31	0.7
CC(=O)c1ccc(OCc2cc(C(=O)N(C)Cc3cc(C)no3)no2)cc1	.	4	.	.	-3.2
O=C(COc1cc(O)c2c(=O)c3ccccc3oc2c1)OCc1ccccc1	?	99	.	.	3.3
Cc1ccc(OCC(=O)N2N=C(c3ccc(Cl)cc3)CC2c2ccco2)c([N+](=O)[O-])n1 (stereo unspecified)	5%	-1	.	3	-0.4
Nc1nc(-n2cnnc2)nn1-c1ccccc1	-7%	1	-36	5	-1.0
O=C(Nc1ccc(-c2nc3ccccc3o2)cc1)c1cccnc1	6%	-1	25	12	1.5
CCOC(=O)C1=C(C)N=C2SC(C)C(=O)N2C1c1cccc(F)c1 (stereo unspecified)	7%	-2	-12	-14	8.8
COC(=O)Cn1c2ccccc2c2nc3ccccc3nc21	.	5	.	.	-12
CCOC(=O)C1=C(C)NC(=S)NC1c1ccc(-c2ccc(Cl)cc2)o1 (stereo unspecified)	?	89	-17	-5	8.9
O=C1c2cc(S(=O)(=O)NCCCO)ccc2-c2ccc(S(=O)(=O)NCCCO)cc21	-3%	7	-9	1	-2.8
CCOc1ccccc1CN1CCN(Cc2cccc3nonc23)CC1CCO (stereo unspecified)	-11%	3	.	8	-1.7
CCOC(=O)c1c(CN(C)C)n(-c2ccccc2)c2cc(Br)c(OC)cc12	13%	4	7	-20	18
Cc1cc(C)cc(N(CC(=O)Nc2cccc(C)n2)S(=O)(=O)c2c(C)noc2C)c1	-6%	1	-25	16	4.0	Arbovirus inh repeat=3
COCCN(C(C)=O)c1nnc(-c2cnccn2)s1	.	-3	-37	6	0.3
Cc1cc(=O)oc2c(C)c(OCC(=O)N3CCC(C(=O)O)CC3)ccc12	.	4	.	.	3.6
Cc1csc(CNC(=O)C2CCC(=O)N(CCCc3ccccc3)C2)n1 (stereo unspecified)	.	-1	.	.	-0.7

Grouped by structure: those above containing an NH in an aromatic ring.
SMILES	Mtb growth	Mtb bLac sens	YopH PTP inh	Arbovirus inh	RecA intein inh	others
COc1ccc(C(=O)N/N=C/c2c(C)[nH]c(=O)[nH]c2=O)cc1	0%	0	.	-7	-4.5
O=C(CN1C(=O)NC(Cc2c[nH]c3ccccc23)C1=O)Nc1cccc(S(=O)(=O)N2CCCC2)c1 (stereo unspecified)	4%	-11	.	4	0.6

More structures:
SMILES	Mtb growth	Mtb bLac sens	YopH PTP inh	Arbovirus inh	RecA intein inh	others
O=C(CCn1cccc1)NCc1ccccc1	-11%	2	-21	1	-1.0
Cc1ccc(-n2ccc(=O)c(C(=O)Nc3ccc(S(=O)(=O)Nc4nccc(C)n4)cc3)n2)cc1	.	1	.	.	0.4
CCCN(CCC)CCCNC(=O)c1cn(CCOC)c(=O)c2c1c1ccccc1n2C	-3%	.	-41	6	-0.9
C=C(C)CSc1nc(N)c2c(C)c(C)sc2n1	4%	1	-19	3	-1.6
COc1ccc(Cl)cc1Nc1nc(C)cc(C)c1C(N)=O	-3%	-11	-38	0	-0.9
CCCCCNC(=O)CCCCn1c(=O)[nH]c2cc(OCC)c(OCC)cc2c1=O	-6%	1	-32	-4	0.1
CN(C)C(=O)COc1ccc(C(=O)/C=C/c2cccnc2)cc1	.	-6	.	.	0.8
CCCCC(=O)Nc1ccc(C(=O)NCCN2CCOCC2)cc1	.	-8	.	.	-1.4
O=C(CCC1COc2ccccc2O1)Nc1cccnc1 (stereo unspecified)	-8%	-26	8	4	0.7
Cc1cc(C(=O)NCCCN(C)C)c2ccccc2n1	4%	.	.	1	0.0
Cc1ccc(C(=O)Nc2c(C)cc(-c3ccccc3)oc2=O)cc1	2%	-3	.	-5	-4.8
CN(CC(=O)Nc1ccccc1Cl)C(=O)CSC(=S)N1CCCC1	.	4	.	.	-0.6
Cc1ccc2[nH]c3c(c2c1)CN(C)CC3	-3%	-8	-7	8	0.8
CCS(=O)(=O)N1CCCC(C(=O)NCc2ccc(C)cc2)C1 (stereo unspecified)	4%	-3	-14	5	0.9
O=C1CC(N2CCSCC2)C(=O)N1CCc1ccccc1 (stereo unspecified)	-7%	-3	-30	6	3.1
Cn1c(Cc2ccccc2)n[nH]c1=S	4%	-2	-25	5	-8.2
CCOc1cc(/C=C2/NC(=S)NC2=O)ccc1OCc1ccc([N+](=O)[O-])cc1	4%	2	-22	-34	0.9
Cc1nnc(NC(=O)C2COc3ccccc3O2)s1 (stereo unspecified)	-1%	1	-36	1	-1.8
O=C(OCC(=O)N1CCCC1=O)c1ccc(F)c(S(=O)(=O)N2CCOCC2)c1	.	-10	.	.	0.8
O=C1NC(=O)C(CCc2ccccn2)(Cc2cccc(Cl)c2Cl)C(=O)N1c1ccc(Br)cc1 (stereo unspecified)	14%	4	-34	4	2.6
O=C(O)c1cccc(N/N=C/C2=C(Cl)c3cc(Cl)ccc3SC2)c1	33%	.	.	46*	1.1
Cc1nnc(N2C(=O)c3cccc4c([N+](=O)[O-])ccc(c34)C2=O)s1	.	1	.	.	-5.8
O=C(c1ccc(F)cc1)n1cc(C(=S)N2CCOCC2)c2ccccc21	-8%	0	.	-2	3.8
COc1ccc(C=C2C(=O)OC(C)(C)OC2=O)cc1OC	-16%	3	.	.	-3.0
Cc1ccc(CNC(=O)CN2C(=O)COc3ccc(S(=O)(=O)N4CCCCC4)cc32)o1	.	2	.	.	0.5
CCOC(=O)N1CCN(CCC(=O)Nc2ccc(Br)c(C)c2)CC1	?	95	.	-5	-0.5
CCN(CC(=O)NCc1ccco1)S(=O)(=O)c1ccc(OC)cc1	.	-2	.	.	-1.0
CCN(C1CCS(=O)(=O)C1)S(=O)(=O)c1ccc(OC)c(OC)c1 (stereo unspecified)	.	-9	.	.	-1.0
O=C(NC1CCCC1)c1cc(-c2ccc(Cl)cc2Cl)on1	.	-5	.	.	4.2
Cc1ccc(SCC(=O)OCC(=O)N(C)CC(=O)Nc2ccccc2Cl)cc1	.	-1	.	.	0.5
COc1ccc(NC2(c3ccc(Cl)cc3)C(=O)c3ccccc3C2=O)cc1	>100µM*	97	-14	-11	1.0
CCOC(=O)c1cc(C#N)c(Oc2cccc(C(F)(F)F)c2)nc1-c1ccccc1	1%	9	-27	1	6.8
Cc1ccc(C)c(C(=O)CSc2nnc(C)s2)c1	-2%	2	.	6	-4.2
CCOc1ccccc1CNCCN1CCOCC1	0%	7	-5	0	-3.5
CCN(CC)c1ccc(N=Cc2c(O)n(Cc3ccco3)c(=O)[nH]c2=O)cc1	-5%	2	.	.	-11
CCOc1cc(C=O)cc(Cl)c1OCC(N)=O	3%	1	.	0	2.1
CCOc1ccc(NC(=O)Nc2ccon2)cc1	.	13	.	.	3.6
CN1CCN(CCCNC(=O)c2cn(C)c3ccc(S(=O)(=O)N(C)C)cc3c2=O)CC1	3%	1	8	0	.	Arbovirus inh repeat=5

Structures from the list above with a Cl atom (15):
SMILES	Mtb growth	Mtb bLac sens	YopH PTP inh	Arbovirus inh	RecA intein inh	others
O=C(NCCNC(=O)c1ccco1)c1ccc(Cl)c(Cl)c1	.	-2	.	.	5.2
Cc1nn(CC(=O)c2ccc(Cl)s2)c(C)c1[N+](=O)[O-]	67%	-6	.	22	1.9
COc1ccc(Cl)cc1NC(=O)CC(C)=O	5%	89	-47	0	2.0
COc1cc(C(=O)Nc2ccc(F)cc2Cl)ccc1OCC(=O)N1CCOCC1	.	-7	.	.	-0.7
O=C(CSc1nnc(-c2ccc3c(c2)OCO3)o1)Nc1ncc(C(F)(F)F)cc1Cl	?	83	.	-17	-0.2
Cc1ccc(OCC(=O)N2N=C(c3ccc(Cl)cc3)CC2c2ccco2)c([N+](=O)[O-])n1 (stereo unspecified)	5%	-1	.	3	-0.4
CCOC(=O)C1=C(C)NC(=S)NC1c1ccc(-c2ccc(Cl)cc2)o1 (stereo unspecified)	?	89	-17	-5	8.9
COc1ccc(Cl)cc1Nc1nc(C)cc(C)c1C(N)=O	-3%	-11	-38	0	-0.9
CN(CC(=O)Nc1ccccc1Cl)C(=O)CSC(=S)N1CCCC1	.	4	.	.	-0.6
O=C1NC(=O)C(CCc2ccccn2)(Cc2cccc(Cl)c2Cl)C(=O)N1c1ccc(Br)cc1 (stereo unspecified)	14%	4	-34	4	2.6
O=C(O)c1cccc(N/N=C/C2=C(Cl)c3cc(Cl)ccc3SC2)c1	33%	.	.	46*	1.1
O=C(NC1CCCC1)c1cc(-c2ccc(Cl)cc2Cl)on1	.	-5	.	.	4.2
Cc1ccc(SCC(=O)OCC(=O)N(C)CC(=O)Nc2ccccc2Cl)cc1	.	-1	.	.	0.5
COc1ccc(NC2(c3ccc(Cl)cc3)C(=O)c3ccccc3C2=O)cc1	>100µM*	97	-14	-11	1.0
CCOc1cc(C=O)cc(Cl)c1OCC(N)=O	3%	1	.	0	2.1
